High-throughput results deposited in PubChem by several laboratories.
Proteasome disasm = blocks ATP-dependent breakdown of the yeast 26S proteasome; anti-FLAG beads, GFP-proteasome disassembly, flow cytometry; AID 751; actives 0.2% (n = 24,000); inhibition of disassembly, % (concentration not given with the values);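 active = above 40%; inconclusive = likely self-fluorescent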;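 also: plate controls were ATP control with full disassembly for no effect and ATP-gamma-S intact proteasomes for full effect; higher percent means more bead fluorescence retained so stronger block of disassembly; stock transfer was 100 nL into about 10 µL; wells with too few beads may also be inconclusive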
VCAM-1 up = boosters of cytokine-driven VCAM-1 levels – cell-based, plate reader, pooled HUVEC, TNFa stimulus (AID 455) | augmentation, % at 5 µM | HUVEC TNFa-induced VCAM-1 immunofluorescence, plate reader; numbers were filed only for top-ranked candidate wells | actives 0.2% (n = 10,000);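 active = a compound raising TNF-alpha-driven VCAM-1 surface staining, with its hit status upheld on visual or statistical review; inactive = the rest, including hits rejected on review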;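 also: 0% = TNFa with vehicle and 100% = strongest image-checked hit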
An asterisk follows results filed as active; i = inactive; ? = inconclusive; / = no result given.

no. | SMILES | Proteasome disasm | VCAM-1 up
1 | CCOC(=O)C1CCCN(C(=O)C2CCCN(S(=O)(=O)c3ccc4c(c3)oc(=O)n4C)C2)C1 (configuration not stated) | -2.8 | /
2 | CCN(CC)CCN1C(=O)c2oc3ccc(F)cc3c(=O)c2C1c1ccncc1 (configuration not stated) | 0.3 | i
3 | CC1CCN(S(=O)(=O)c2ccc3[nH]cc(C(=O)NCCN4CCOCC4)c(=O)c3c2)CC1 | -0.4 | i
4 | CCOC(=O)CCNC(=O)CNC(=O)OCc1ccccc1 | -0.3 | /
5 | CCOC(=O)N1CCN(C(=O)C(CC)n2nc(C)c3sc4ccccc4c3c2=O)CC1 (configuration not stated) | 0.1 | /
6 | CCC(C(=O)N1CCN(c2ccccn2)CC1)n1nc(C)n2c(cc3occc32)c1=O (configuration not stated) | 1.4 | /
7 | O=C(O)CCc1ccc(-c2ccc(Br)cc2)n1CC(=O)O | 1.0 | i
8 | COc1ccc(S(=O)(=O)Nc2ccc(Cl)cn2)c(C)c1C | -1.4 | i
9 | Cc1ccc(C)c(N2CCN(C(=O)c3ccc(NS(=O)(=O)c4c(C)noc4C)cc3)CC2)c1 | 3.0 | /
10 | CCOc1cc(S(=O)(=O)NCc2ccc3c(c2)OCO3)ccc1F | -0.1 | i
11 | N#Cc1cnc(SCC(=O)Nc2ccccc2C(F)(F)F)nc1N | 5.3 | i
12 | C/C(N)=C(/C#N)C(=O)COC(=O)CCSc1ccccc1 | -0.4 | i
13 | CCCOC(=O)c1ccc(-c2c(C)noc2-c2ccc(OC)cc2O)o1 | -0.5 | i
14 | COc1ccccc1NC(=O)C1=C(C)Nc2nnnn2C1c1cccc(Br)c1 (configuration not stated) | 1.0 | /
15 | COc1cccc(-n2nc(C(=O)Nc3ccc4c(c3)OCO4)c3ccccc3c2=O)c1 | -1.0 | i
16 | CCOc1ccc2nc(NC(=O)C3CCCN(S(=O)(=O)c4c(C)noc4C)C3)sc2c1 (configuration not stated) | 0.7 | i
17 | COc1ccc(CCN2C(=O)CCC2(C)C(=O)NCc2cccnc2)cc1OC (configuration not stated) | 0.8 | i
18 | Cc1cc(C)n(-c2nc3sc4c(c3c3nnc(SCC(N)=O)n23)CC(C)(C)OC4)n1 | 2.2 | i
19 | Cc1cccn2c(=O)c(C=Nc3ccc(Cl)cc3)c(NCCO)nc12 | 0.4 | /
20 | Cc1[nH]c2ccccc2c1Cc1nnc(SCC(=O)NCc2ccco2)o1 | 0.4 | i
21 | COCCCNC(=O)CCn1c(=O)c2ccccc2n(CC(=O)Nc2ccccc2C)c1=O | 0.1 | /
22 | CCc1nccn1S(=O)(=O)c1ccc(OC)c(OC)c1 | -0.2 | /
23 | COC(=O)c1cccnc1-n1c(=O)c2cccnc2n(Cc2cccc(OC)c2)c1=O | 1.0 | /
24 | COc1ccc(C(=O)Cn2nnc(-c3cccs3)n2)cc1 | 1.5 | i
25 | CN1CCOc2cc(S(=O)(=O)Nc3ccc(F)cc3)ccc21 | -0.4 | /
26 | COCCCNC(=O)CCC(=O)Nc1ccc2nc(N3CCOCC3)cc(C)c2c1 | -0.9 | /
27 | COc1cccc(NC(=O)CSc2nc3ccccc3c(=O)n2CCCC(=O)N2CCCC2)c1 | 0.1 | /
28 | O=C(c1ccc(S(=O)(=O)N2CCC(c3nc4ccccc4s3)CC2)cc1)N1CCOCC1 | 1.5 | i
29 | Cc1cc(N2CCCC2)n2nc(C)nc2n1 | -0.2 | /
30 | Cc1cccc(C)c1NC(=O)Cn1c(=O)n(CCC(=O)NCc2ccco2)c(=O)c2sccc21 | 0.6 | /
31 | COc1ccc2c(c1)OC13CCN(C)CC1C2C(C(=O)c1ccc(F)cc1)C(=O)N3 (configuration not stated) | 1.3 | /
32 | COc1ccc(Cl)cc1NC(=O)CSc1nnc(Cc2cccn2C)n1-c1ccc(F)cc1 | 0.8 | /
33 | CCOC(=O)c1ccc2ncc(C(=O)OCC)c(NCCN(C)C)c2c1 | 0.7 | i
34 | c1ccc(-c2nc3nonc3c3nc4ccccc4n23)cc1 | -1.0 | i
35 | CC1CCCN(C(=O)C(Cc2ccccc2)n2cccc2)C1 (configuration not stated) | 2.2 | /
36 | COc1cc2nc(=S)n3[nH]c(CCn4nc(C)cc4C)nc3c2cc1OC | 1.0 | /
37 | Cc1ccc(S(=O)(=O)NCCCOC(=O)Nc2ccncc2)cc1 | 0.2 | /
38 | COc1ccc(C2C(C(=O)N3CCN(c4ccccc4F)CC3)c3ccccc3C(=O)N2C)cc1 (configuration not stated) | -1.1 | /
39 | COc1ccc(-c2nnc(SCc3nnc(-c4ccc(Cl)cc4)o3)n2-c2ccccc2)cc1 | 1.8 | i
40 | COc1ccc(-n2nc(C(=O)NCC(=O)NCc3ccco3)c3ccccc3c2=O)cc1 | 0.5 | /
41 | CC1(C)Cc2c(C#N)c(NCCCO)nc(-c3ccccc3)c2CO1 | -1.1 | /
42 | O=C(COc1ccccc1Cl)NCCCN1CCOCC1 | 1.3 | i
43 | O=C(Nc1nc(-c2ccc(S(=O)(=O)N3CCCCCC3)cc2)cs1)c1cccs1 | 5.4 | i
44 | CCOC(=O)c1ccc2nc(C)c3c(c2c1)OC(C)C3 (configuration not stated) | -0.7 | i
45 | CCOC(=O)CSc1nnc(CNC(=O)c2ccccc2OC)n1-c1ccc(OC)cc1 | 2.3 | /
46 | Cc1cccc(OCCCc2c(C)n[nH]c2C)c1 | 2.2 | i
47 | O=C(NC1CCCCC1)c1ccc(S(=O)(=O)N2CCCCC2)cc1 | 1.4 | i
48 | O=C(Cn1nnc(-c2ccccc2F)n1)NCCc1ccccc1 | 0.5 | /
49 | Cc1onc(-c2c(Cl)cccc2Cl)c1C(=O)NCC1CCCO1 (configuration not stated) | 1.2 | i
50 | OCc1nc(CO)n(Cc2ccccc2)n1 | 0.2 | i

Remaining list, next part.
no. | SMILES | Proteasome disasm | VCAM-1 up
51 | CCC(=O)N1CCc2cc(Br)cc(S(=O)(=O)CC(=O)OC)c21 | -0.5 | /
52 | CCOC(=O)N1CCN(c2cc(=O)n(C3CCCCC3)c(=O)[nH]2)CC1 | 0.5 | /
53 | CC(=O)Nc1nc(C)c(S(N)(=O)=O)s1 | -1.5 | /
54 | CCOc1ccc(OCC)c(NC(=O)C2CCN(c3ncccn3)CC2)c1 | -0.3 | i
55 | Cc1cc(C)n2nc(S(=O)(=O)N(CC(C)C)CC(C)C)nc2n1 | -1.0 | /
56 | CCOc1ccccc1C1C(C(N)=O)=C(C)Nc2nc(-c3ccccc3Cl)nn21 (configuration not stated) | 0.4 | /
57 | Cc1ccnc(NC(=O)Nc2ccc(F)cc2)c1 | 0.8 | i
58 | CN=C1CC(C)(C)CC(=O)/C1=C(/O)CCC(=O)NC | 0.9 | i
59 | Cc1ccc(CCN2CC(C(=O)NC3CCCC3)CC2=O)cc1 (configuration not stated) | 1.5 | /
60 | COc1ccc(C2N(c3cc(Cl)ccc3OC)C(=O)C3CCCN32)cc1 (configuration not stated) | -0.5 | /
61 | CC(CCc1ccco1)NC(=O)Cn1nc(Cc2ccncc2)c2ccccc2c1=O (configuration not stated) | -0.6 | /
62 | Cc1noc(C)c1S(=O)(=O)NCc1ccc2c(c1)OCO2 | 0.5 | /
63 | C=CCn1c(SCC(=O)Nc2ccccc2OC)nnc1-c1ccco1 | 1.4 | i
64 | CCOc1cccc(Oc2ccc(C(F)(F)F)cn2)c1 | -0.9 | i
65 | CCNc1oc(COc2ccccc2F)nc1C#N | 0.1 | i
66 | CC1C(c2ccccc2)N(C)CCC12NC(=O)NC2=O (configuration not stated) | -1.1 | i
67 | CCOC(=O)N1CCN(C(=O)CSc2nnc(C3COc4ccccc4O3)o2)CC1 (configuration not stated) | -2.6 | /
68 | O=[n+]1c2c(n([O-])c3cc(F)c(N4CCCC4)cc31)CCCC2 | -0.5 | /
69 | COc1ccc(S(=O)(=O)N2CCC(C(N)=O)(N3CCCCC3)CC2)cc1 | 0.9 | /
70 | Cc1sc2ncnc(Oc3ccc(-n4ccnc4)cc3)c2c1C | 1.0 | i
71 | Cc1ccc2c(c1)NC(=O)C(CC(=O)NCCN(CC(C)C)CC(C)C)O2 (configuration not stated) | 4.2 | i
72 | CCOc1ccc(C2C3=C(CCCC3=O)Nc3nc(C(F)(F)F)nn32)cc1OC (configuration not stated) | 0.1 | /
73 | CCC(=O)N1CCCc2cc(S(=O)(=O)N3CCN(c4ccccn4)CC3)ccc21 | -0.2 | /
74 | Cc1ccc(Cl)cc1N1CCN(Cc2nc3c(c(=O)[nH]c(=O)n3C)n2CCc2ccccc2)CC1 | 2.2 | /
75 | Cc1cc(C)nc(NS(=O)(=O)c2cccs2)c1 | 1.4 | /
76 | CCCCOCCCNC(=O)c1ccccc1OCC | 1.7 | i
77 | COC(=O)CCC(=O)Nc1ccc(S(=O)(=O)N2CCCCCC2)cc1 | 4.8 | i
78 | COC(=O)C1=C(NC(=O)c2ccc(C)c(C)c2)CCS1 | -1.4 | /
79 | Cn1c(=O)[nH]c(=O)c2c1nc(CN1CCN(c3ccc(F)cc3)CC1)n2CCCc1ccccc1 | 1.8 | /
80 | CCCn1c(C(O)c2ccc(OCC)cc2)nc2ccccc21 (configuration not stated) | 0.5 | /
81 | O=c1c2ccccc2c(/C=N/n2cnnc2)c(O)n1-c1ccccc1 | -2.5 | i
82 | Fc1ccc(Cn2nnc(-c3ccc(CN4CCOCC4)cc3)n2)cc1 | -0.3 | i
83 | Cc1c(NC(=O)CCCCCN2C(=O)C3C4C=CC(C4)C3C2=O)c(=O)n(-c2ccccc2)n1C (configuration not stated) | -0.5 | /
84 | CCC1Oc2ccc(C)cc2N(CC(=O)NCCc2ccc(OC)c(OC)c2)C1=O (configuration not stated) | 0.0 | /
85 | CCN(CC)CCn1c(=S)[nH]c2cc3c(cc2c1=O)OCO3 | 1.4 | /
86 | Cc1c2cnn(-c3ccccc3)c(=O)c2c(C)n1CCCC(=O)N1CCN(C)CC1 | 0.6 | /
87 | COc1cc(OC)cc(C(C)=O)c1 | -2.3 | /
88 | CC1=C(C(N)=O)C(c2ccc3c(c2)OCO3)n2nc(-c3cccc(C)c3)nc2N1 (configuration not stated) | -0.1 | /
89 | Cc1csc(NC(=O)c2cc3c(s2)-c2ccccc2OC3)n1 | -0.5 | i
90 | COc1ccc(N2CCN(CCNS(=O)(=O)c3cccc4nsnc34)CC2)cc1 | -1.9 | i
91 | CCOC(=O)N1CCN(C(=O)CSc2nc(-c3cccc(C)c3)ns2)CC1 | 1.4 | /
92 | CCN(CC)S(=O)(=O)c1ccc(C(=O)NCc2nnc(SCC(=O)OC)n2C)cc1 | 0.8 | /
93 | Cc1[nH]nc(N=CC2=C(O)CC(C)(C)CC2=O)c1-c1ccc(Cl)cc1 | 0.1 | i
94 | COc1ccc(S(=O)(=O)NCCC(=O)NCc2ccccc2)cc1 | -0.1 | /
95 | O=C(NCCc1ccccc1)C1CCCN(S(=O)(=O)c2cccnc2)C1 (configuration not stated) | -1.0 | /
96 | COc1ccc(S(=O)(=O)NCCc2csc(C)n2)cc1C | 0.1 | /
97 | COc1ccc(OC)c(NC(=O)Cc2coc3ccc(C)cc23)c1 | -1.8 | i
98 | Cn1c(=O)c2c([nH]c(=O)n2C)n(C)c1=O | -1.1 | i
99 | Cc1cc(=O)oc(C)c1C(=O)NCc1c(F)cc(F)cc1F | 0.1 | /
100 | CCOC(=O)c1oc2ccccc2c1NC(=O)COc1cccc(OC)c1 | 4.0 | /

3 of these compounds, reformatted:
(82) Fc1ccc(Cn2nnc(-c3ccc(CN4CCOCC4)cc3)n2)cc1
  Proteasome disasm: -0.3 | VCAM-1 up: i
(92) CCN(CC)S(=O)(=O)c1ccc(C(=O)NCc2nnc(SCC(=O)OC)n2C)cc1
  Proteasome disasm: 0.8 | VCAM-1 up: /
(85) CCN(CC)CCn1c(=S)[nH]c2cc3c(cc2c1=O)OCO3
  Proteasome disasm: 1.4 | VCAM-1 up: /

Other compounds follow.
no. | SMILES | Proteasome disasm | VCAM-1 up
101 | CCn1c(=N)n(CC(O)c2ccco2)c2ccccc21 (configuration not stated) | -0.6 | i
102 | O=C(O)c1cc(Cl)c(Cl)cc1C(=O)N1CCCC1 | -0.7 | i
103 | c1ccc(-c2nc3cc(Oc4ccc5oc(-c6ccccn6)nc5c4)ccc3o2)nc1 | 1.9 | /
104 | CN(C(=O)c1cccc(N2C(=O)C3CC=CCC3C2=O)c1)C1CCCCC1 (configuration not stated) | -0.5 | /
105 | COc1cccc(-c2nc(CS(=O)CC(=O)NCc3ccccc3)c(C)o2)c1 (configuration not stated) | 9.5 | /
106 | C/C(=N\n1nnnc1Nc1ccccc1)c1ccc(N)cc1 | -1.4 | /
107 | Cc1ccc2c(c1)-c1c(cnn1CC(=O)N(CCC#N)c1ccccc1)CO2 | 2.8 | /
108 | CCCN(CCC)C(=O)c1ccc2c(c1)N(Cc1ccccc1)C(=O)CS2=O (configuration not stated) | 0.3 | /
109 | COc1ccc(C(N)CCc2ccc(C)o2)cc1 (configuration not stated) | ? | /
110 | CC1CCC(NC(=O)CN2C(=O)C3CCCN3c3ncc(Cl)cc32)CC1 (configuration not stated) | 17 | /
111 | CCCCN(c1ccccc1)S(=O)(=O)c1ccc2c(c1)CCN2C(=O)CCC(=O)O | -0.2 | i
112 | O=C(O)CCN(CCC(=O)O)c1nnc(SCc2ccccc2)s1 | -2.9 | i

Five entries out of the list, arranged by count of non-hydrogen atoms, low to high:
no. | SMILES | Proteasome disasm | VCAM-1 up
102 | O=C(O)c1cc(Cl)c(Cl)cc1C(=O)N1CCCC1 | -0.7 | i
101 | CCn1c(=N)n(CC(O)c2ccco2)c2ccccc21 (configuration not stated) | -0.6 | i
106 | C/C(=N\n1nnnc1Nc1ccccc1)c1ccc(N)cc1 | -1.4 | /
108 | CCCN(CCC)C(=O)c1ccc2c(c1)N(Cc1ccccc1)C(=O)CS2=O (configuration not stated) | 0.3 | /
111 | CCCCN(c1ccccc1)S(=O)(=O)c1ccc2c(c1)CCN2C(=O)CCC(=O)O | -0.2 | i

These rows are one share of the data; rates above refer to the full screens.
